Compound activity from PubChem BioAssay.
ALR inh: inhibitors of human sulfhydryl oxidase ALR; hit rate 3.8% among 290,000; AID 485317; purified ALR, DTT oxidation, H2O2 HRP-luminol luminescence; inhibition, % (test concentration not listed); P55789;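 active means mean and each replicate at 75% or more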;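 further: stock transfer was 7.5 nL into about 7.5 µL; 0% = neutral wells and 100% = wells with inactivated enzyme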
Target sequence (P55789 whole entry, looked up): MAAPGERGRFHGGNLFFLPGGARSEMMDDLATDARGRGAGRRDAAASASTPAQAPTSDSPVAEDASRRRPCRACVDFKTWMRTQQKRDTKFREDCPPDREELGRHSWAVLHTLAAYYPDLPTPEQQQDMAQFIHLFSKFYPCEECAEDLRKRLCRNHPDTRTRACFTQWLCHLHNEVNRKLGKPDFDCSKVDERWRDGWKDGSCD
FGF22 binding: shifts melting point of recombinant human FGF22; calls only at 9.99 µM; hit rate 1.5% among 340,000; Q9HCT0; recombinant FGF22 thermal shift, SYPRO orange fluorescence; percent of sucrose octasulfate shift, DMSO zero; AID 651658;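 active means melting point raised past a set limit in the mean and every replicate; three in four hits are not shown here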
Target sequence (Q9HCT0 whole entry, looked up): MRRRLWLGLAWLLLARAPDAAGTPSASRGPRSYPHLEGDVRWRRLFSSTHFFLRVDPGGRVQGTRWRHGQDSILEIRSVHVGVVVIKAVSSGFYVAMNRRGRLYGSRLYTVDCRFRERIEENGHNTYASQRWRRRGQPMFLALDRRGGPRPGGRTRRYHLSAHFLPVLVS
Vif A3G: inhibitors of Vif binding to APOBEC3G peptide, primary screen, biochemical, TR-FRET, GST-Vif 1-94, biotin-A3G peptide, dose response retest (AID 1117319); TR-FRET GST-Vif / biotin-A3G peptide binding; higher % means a stronger effect; test concentration not given here; strong numbers were not always called active; inhibition, %; hits with a dose series show IC50 in µM; hit rate 0.57% among 260,000;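 active means above the screen mean plus three standard deviations and confirmed in dose response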;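 further: Vif residues 1-94 fused to GST binding biotinylated APOBEC3G peptide 110-148; 0% = full assay without inhibitor and 100% = GST in place of GST-Vif; retest series ran down from 100 µM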
Ecoli rRNA inh: inhibitors of bacterial rRNA selective over humanized ribosomes; E. coli WT GFP vs humanized-ribosome RFP mutants, fluorescence, 24 h; active compounds read low; DMSO median 0, no signal -100; GFP signal change (wild-type ribosome), % (no concentration beside the values); hit rate 1.6% among 350,000; AID 720706;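 active means significant combined selectivity score with lowered wild-type GFP, culture density cut under 30%, mutant RFP and density less affected; inactive means any of these conditions unmet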; further: one replicate is shown; some compounds called inactive have numbers as strong as hits
AF4-AF9 inh: MLL-AF4/AF9 protein interaction inhibition | P42568 | AlphaScreen, biotin-AF4 peptide binding to FLAG-AF9 | inhibition, % at 10 µM | hit rate 0.47% among 350,000 | AID 651704;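 active means every replicate reaching a set inhibition limit, whatever the replicate mean, cut at about 25% in these data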;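 further: 0% = plate neutral control median and 100% = total signal loss; the record names both 10 and 1 µM as test concentration; the first replicate is given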
E coli growth: E. coli growth inhibition. Escherichia coli growth, OD600, 23 h; active compounds read low. OD600 absorbance (concentration not given with the values). hit rate 0.21% among 330,000;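 active means OD600 absorbance below the run mean of sample wells minus 3.6 SD, in any replicate, cut at about 0.56 in these data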;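 further: stock transfer was 300 nL into about 60 µL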
HNF4A DNA FP: change in binding of human HNF4 alpha to DNA; P41235; HNF4a-FITC DNA binding, fluorescence polarization, 1 h; activity change, % at 10 µM; hit rate 0.3% among 360,000; AID 1224865; in the data active means activity change above about 30%, passing the limit was not always enough;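 further: controls were the assay level and a saturating level of protein; the project sought stronger binding though the title names inhibitors; some compounds called inactive have numbers as strong as hits; positive values seem to mean higher polarization but the record does not say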
Target sequence (P41235 whole entry, looked up): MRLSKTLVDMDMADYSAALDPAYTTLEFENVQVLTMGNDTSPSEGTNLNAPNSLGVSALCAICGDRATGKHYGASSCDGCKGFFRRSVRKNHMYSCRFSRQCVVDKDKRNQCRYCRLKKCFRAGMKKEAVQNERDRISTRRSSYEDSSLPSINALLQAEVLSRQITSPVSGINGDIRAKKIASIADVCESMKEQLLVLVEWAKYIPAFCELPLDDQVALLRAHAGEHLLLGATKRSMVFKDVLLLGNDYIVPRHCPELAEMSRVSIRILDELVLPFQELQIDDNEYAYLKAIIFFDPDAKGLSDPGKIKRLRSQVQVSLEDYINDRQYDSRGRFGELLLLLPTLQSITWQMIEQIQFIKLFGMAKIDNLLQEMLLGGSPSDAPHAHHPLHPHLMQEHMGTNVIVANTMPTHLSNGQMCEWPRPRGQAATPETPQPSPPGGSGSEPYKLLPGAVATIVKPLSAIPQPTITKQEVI
Ecoli rRNA inh OD600: recorded beside Ecoli rRNA inh, whose call it bears; OD600 change, %; measured here: OD600 growth;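 optical density of the mix in the first replicate; 0 = DMSO median and -100 = no signal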
Ecoli rRNA inh RFP: also measured in Ecoli rRNA inh; calls as there; RFP signal change, %; measured here: RFP humanized mutant strains;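 first replicate; 0 = DMSO median and -100 = no signal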
* = called active by the depositor; i = inactive; x = not tested or not shown. A portion of the library, so the mix of outcomes need not match the whole.

SMILES | ALR inh | FGF22 binding | Vif A3G | Ecoli rRNA inh | Ecoli rRNA inh OD600 | Ecoli rRNA inh RFP | AF4-AF9 inh | E coli growth | HNF4A DNA FP
Nc1nc(SCc2ccccc2[N+](=O)[O-])c2ncn(Cc3ccccc3)c2n1 | x | i | 1% | -15 | -5 | -0.7 | -2.6 | 0.68 | 1.7
CCC(=O)N(C)C[C@H]1Oc2cc(C#CC(C)(C)O)ccc2S(=O)(=O)N([C@H](C)CO)C[C@@H]1C | x | i | x | 1 | -1 | -1.2 | 2.0 | x | x
CCOC(=O)c1cn(-c2c(C)n(C)n(-c3ccccc3)c2=O)c2c(F)c(F)c(F)cc2c1=O | -15 | i | 6% | 16 | 1 | 1.0 | x | 0.69 | -0.5
O=C(c1cccc(F)c1)N1C[C@H]2[C@@H](c3ccccc31)[C@H](CO)N2C(=O)c1ccccn1 | x | i | x | 5 | 12 | -3.8 | -3.6 | x | x
CC(OC(=O)c1nc(Cl)ccc1Cl)C(=O)NC1CCCCC1C (stereo not drawn) | x | i | -5% | x | x | x | -1.2 | x | 1.5
Cc1noc(/C=C/c2ccco2)c1S(=O)(=O)N1CCC(C(=O)Nc2ccc(Cl)cn2)CC1 | -12 | x | 9% | x | x | x | x | 0.7 | 1.1
COc1ccc2nc(C)cc(NCc3ccc(F)cc3)c2c1 | -4 | i | 6% | 18 | -10 | -0.4 | -1.2 | x | 147
Cc1ccc(NC(=O)C2c3ccccc3Oc3ccccc32)nc1 | -2 | i | -3% | 2 | -6 | -3.8 | -2.7 | 0.7 | -0.7
O=C1OC(=O)c2cc([N+](=O)[O-])ccc21 | -4 | i | x | -1 | -1 | -2.9 | x | 0.67 | -1.0
CCCC1=C(C(=O)OCC)C(c2cc(Cl)cc(OC)c2OCC(=O)OCC)NC(=O)N1 (stereo not drawn) | -2 | x | 9% | x | x | x | x | 0.8 | 1.1
Fc1ccccc1CNc1nc(NCC2CC2)nc2ccsc12 | x | i | x | -54 | -80 | -15 | 3.2 | x | -0.6
COc1ccc(NC(=O)Nc2ccc3c(c2)C(=O)N([C@@H](C)CO)C[C@@H](C)[C@@H](CN(C)Cc2ccc(C(F)(F)F)cc2)O3)cc1 | x | i | x | 0 | -13 | 8.0 | 8.7 | x | x
O=C(N[C@H]1CC[C@@H](CCn2cc(C3(O)CCCC3)nn2)O[C@@H]1CO)C1CCOCC1 | x | i | x | 6 | 14 | -1.9 | 0.4 | x | x
Cc1cccc(NC(=O)c2ccc(Cn3cc(C(F)(F)F)ccc3=O)cc2)c1 | 4 | x | 8% | x | x | x | x | x | 5.7
Cn1c(SCC(=O)c2ccc(O)cc2O)nnc1-c1ccccc1 | -2 | i | x | 9 | 15 | 1.9 | 0.0 | 0.69 | 0.9
CN1C(=O)c2cc(NS(C)(=O)=O)ccc2OC[C@@H]2O[C@H](CC(=O)NCc3ccccc3)CC[C@@H]21 | x | i | x | -1 | 1 | 0.5 | -1.0 | x | x
COC(=O)/C=C/C(=O)NCc1ccco1 | 80* | x | 17% | x | x | x | x | x | -4.8
CN1c2ccc(C#Cc3cccnc3)cc2[C@H]2[C@H](CCN2S(=O)(=O)c2ccc(F)cc2)[C@H]1CO | x | i | x | -2 | 2 | 6.2 | 5.4 | x | x
CCNC(=O)CN1c2cccc3cccc(c23)S1(=O)=O | -19 | x | 2% | x | x | x | x | 0.73 | -1.4
COc1cccc(C#Cc2ccc3c(c2)O[C@@H](CN(C)C)[C@H](C)CN([C@H](C)CO)S3(=O)=O)c1 | x | i | x | 4 | -32 | 30 | 12 | x | x
O=C(N/N=C/c1ccc(Cl)c([N+](=O)[O-])c1)c1ccc2c(c1)OCCO2 | x | i | x | 7 | 12 | -8.5 | 7.3 | x | 4.3
COc1ccc(/C=N/NC(=O)/C(=C/c2ccccc2)CCO)cc1 | 64 | x | 2% | x | x | x | x | x | 1.7
CSc1ccccc1NC(=O)CSc1nnc(COc2ccccc2)o1 | 1 | i | x | -2 | -5 | -3.8 | -3.3 | 0.66 | -0.6
CCc1ccc(-c2csc3ncn(Cc4ccc(C(=O)O)cc4)c(=O)c23)cc1 | 59 | i | x | -38 | -54 | -1.1 | -0.8 | 0.66 | 2.7
N/C(=N\OC(=O)CCCOc1ccccc1)c1cccc(Br)c1 | x | i | x | -1 | 8 | -5.3 | -2.0 | 0.69 | 2.7
O=C(COC(=O)Cc1ccsc1)NC1CCCCCC1 | 18 | x | -2% | x | x | x | x | 0.69 | -2.4
CC(C)(C)c1csc(NC(=O)Cn2cnc3ccccc3c2=O)n1 | -2 | x | -3% | x | x | x | x | 0.69 | -2.4
COc1ccc(CN(C)C[C@@H]2Oc3ccc(NC(=O)Cc4ccccc4)cc3CC(=O)N([C@@H](C)CO)C[C@H]2C)cc1 | x | i | x | 2 | -6 | -2.3 | -1.5 | x | x
Cc1ccc(-c2csc(NC(=O)c3cc([N+](=O)[O-])ccc3N3CCOCC3)n2)cc1 | -3 | i | -2% | 10 | -10 | -0.3 | -8.7 | x | 2.6
COc1ccccc1NS(=O)(=O)c1ccc(NC(=O)c2ccccn2)cc1 | x | i | 5% | -16 | -21 | -1.9 | 1.0 | 0.67 | 2.9
CC(C)C#Cc1ccc2c(c1)O[C@@H](CN(C)Cc1ccccn1)[C@@H](C)CN([C@@H](C)CO)S2(=O)=O | x | i | x | -15 | -46 | 22 | 8.2 | x | x
CS(=O)(=O)N(Cc1cc2ccccc2[nH]c1=O)C1CCCCC1 | -6 | x | -6% | x | x | x | x | 0.63 | -11
COc1ccc(C(=O)NC(=S)Nc2ccc([N+](=O)[O-])cc2C)cc1OC | -5 | i | 1% | 13 | 14 | -6.6 | 1.3 | 0.74 | 1.0
C[C@@H]1CN([C@@H](C)CO)C(=O)c2cc(NC(=O)C3CCCCC3)ccc2O[C@@H]1CN(C)Cc1ccccc1 | x | i | x | 0 | -6 | 0.2 | -3.0 | x | x
O=C1Cc2ccccc2C(c2ccc(Br)cc2)N1 (stereo not drawn) | -12 | x | 0% | x | x | x | x | 0.7 | -2.5
CC(C)(C)C(=O)Nc1nnc(CCc2ccccc2)s1 | -3 | i | 0% | 5 | 6 | 4.6 | 4.3 | 0.64 | 2.5
CC(C)Cc1ccc(C(C)C(=N)N)cc1 (stereo not drawn) | -5 | i | >100µM* | 3 | 4 | 0.2 | -0.2 | 0.66 | -0.3
CCOc1ncccc1C(=O)OCC(=O)c1cc(OC)c(OC)c(OC)c1 | x | i | -4% | 5 | -5 | -1.1 | -1.0 | 0.69 | -2.9
COC(=O)c1ccc(Cn2nc(-c3ccc(C)cc3)ccc2=O)cc1 | -3 | i | -6% | 10 | 5 | -0.1 | -2.0 | 0.68 | -3.4
Cc1c(Cl)cccc1NC(=S)N(CCCN1CCOCC1)Cc1cccs1 | -15 | x | x | x | x | x | x | 0.69 | 2.2
CCCCc1c(-c2ccccc2OC)ncn1Cc1ccccc1F | x | i | x | -54 | -77 | -15 | 5.7 | x | x
O=C(CN1CCN(Cc2ccccc2)C1=O)NCc1ccc(Cl)cc1 | 5 | x | 30% | x | x | x | x | 0.78 | 1.8
CN(Cc1ccccc1)C(=O)[C@@H]1CCCN1 | x | i | x | 4 | 13 | 0.3 | -4.3 | x | 2.2
C[C@@H]1CN([C@@H](C)CO)C(=O)c2cccc(N(C)C)c2O[C@H]1CN(C)C(=O)Nc1cccc2ccccc12 | x | i | x | -5 | -12 | 5.2 | -15 | x | x
COc1ccc(S(=O)(=O)Nc2ccc3c(c2)C(=O)N([C@@H](C)CO)C[C@H](C)[C@H](CN(C)C(=O)CCC(F)(F)F)OCCCC[C@H](C)O3)cc1 | x | i | x | -1 | -8 | 1.5 | 0.4 | x | x
O=C(c1ccccc1)N(Cc1ccc2c(c1)OCO2)Cc1nc2ccccc2c(=O)[nH]1 | -10 | x | 5% | x | x | x | x | 0.71 | -2.3
CCn1nnnc1SCC(=O)NNC(=O)C1CCCCC1 | -5 | x | -1% | x | x | x | x | 0.62 | 1.9
COCC(=O)N(Cc1cc2ccc(C)cc2[nH]c1=O)c1cccc(C)c1 | -3 | i | x | 0 | -2 | -0.9 | -9.3 | 0.71 | 4.0
CCCCN(C(=O)CNC(=O)c1ccco1)C(C(=O)NC1CCCC1)c1ccc(OC)cc1 (stereo not drawn) | -7 | x | -5% | x | x | x | x | 0.69 | -3.9
O=S1(=O)CCO[C@H]2Cc3ccccc3[C@H]2N1Cc1ccc(Cl)cc1 | x | i | x | -25 | -23 | -10 | -1.0 | x | 1.2

More records follow:
SMILES | ALR inh | FGF22 binding | Vif A3G | Ecoli rRNA inh | Ecoli rRNA inh OD600 | Ecoli rRNA inh RFP | AF4-AF9 inh | E coli growth | HNF4A DNA FP
COc1cccc(CNC(=O)CS(=O)(=O)Cc2nc(-c3ccc(C)cc3)oc2C)c1OC | 14 | i | x | 4 | 14 | 2.1 | 3.0 | 0.78 | -1.5
O=C(NCc1ccc(F)cc1)c1cc2ccccc2o1 | 0 | i | x | 1 | -8 | 1.4 | 0.0 | 0.67 | 2.8
Cc1ccccc1NC(=O)Cc1nc(COC(=O)CCNS(=O)(=O)c2ccccc2)cs1 | 42 | i | 6% | 2 | 4 | -0.7 | -4.2 | 0.62 | 0.9
COc1ccc(/C=C/C(=O)NC(=S)Nc2ccc(S(N)(=O)=O)cc2)cc1 | 4 | i | -9% | 7 | 19 | 0.7 | -8.6 | 0.67 | -0.6
Nc1nonc1C(=Nc1ccc(Br)cc1)NO | 63 | x | -5% | x | x | x | x | 0.66 | -18
CCN1CCc2c(sc(NC(=O)c3ccc(S(=O)(=O)N4CCOCC4)cc3)c2C(=O)OC)C1 | -3 | x | -1% | x | x | x | x | 0.7 | 5.8
O=C(C[C@@H]1C[C@H]2c3cc(NC(=O)CC4CC4)ccc3O[C@H]2[C@@H](CO)O1)NCc1ccc(-c2ccccc2)cc1 | x | i | x | -4 | 9 | 5.9 | 0.1 | x | x
CCC(=O)N1CCC1(C)C(=O)Nc1ccc(F)cc1 (stereo not drawn) | x | i | x | 9 | 6 | 1.1 | -0.1 | x | -0.8
O=C(NCc1ccccn1)c1ccc([N+](=O)[O-])cc1 | -7 | i | -8% | 6 | 14 | -0.1 | -1.6 | 0.7 | -0.3
CCOc1ccccc1NC(=O)C(NCCN(C)C)c1ccccc1 (stereo not drawn) | x | i | 0% | 7 | 2 | -4.1 | -0.6 | 0.69 | -0.5
CCOc1ccccc1CN1CCNC(=O)C1CC(=O)NCc1nccn1CC (stereo not drawn) | -2 | i | -1% | 20 | 17 | 7.2 | -8.7 | 0.7 | -2.0
CCCS(=O)(=O)N1CCC(C(=O)NCCN2CCC(Cc3ccccc3)CC2)CC1 | x | x | 4% | x | x | x | x | 0.69 | -0.3
CCn1nc(C(=O)NCC2COc3ccccc3O2)c2ccccc2c1=O (stereo not drawn) | -7 | i | -8% | -7 | -23 | 1.1 | 3.7 | 0.63 | 2.2

An excerpt from above in order of their number in Vif A3G, lowest first.
SMILES	ALR inh	FGF22 binding	Vif A3G	Ecoli rRNA inh	Ecoli rRNA inh OD600	Ecoli rRNA inh RFP	AF4-AF9 inh	HNF4A DNA FP
CCn1nc(C(=O)NCC2COc3ccccc3O2)c2ccccc2c1=O (stereo not drawn)	-7	i	-8%	-7	-23	1.1	3.7	2.2
CCOc1ccccc1NC(=O)C(NCCN(C)C)c1ccccc1 (stereo not drawn)	x	i	0%	7	2	-4.1	-0.6	-0.5
CCCS(=O)(=O)N1CCC(C(=O)NCCN2CCC(Cc3ccccc3)CC2)CC1	x	x	4%	x	x	x	x	-0.3
Cc1ccccc1NC(=O)Cc1nc(COC(=O)CCNS(=O)(=O)c2ccccc2)cs1	42	i	6%	2	4	-0.7	-4.2	0.9

Individual results from the results shown.
For Vif A3G, Cc1noc(/C=C/c2ccco2)c1S(=O)(=O)N1CCC(C(=O)Nc2ccc(Cl)cn2)CC1 shows 9%
For Ecoli rRNA inh OD600, COc1ccc(C(=O)NC(=S)Nc2ccc([N+](=O)[O-])cc2C)cc1OC shows 14
